# HPGD inh – qHTS Assay for Inhibitors of HPGD (15-Hydroxyprostaglandin Dehydrogenase); 15-hydroxyprostaglandin dehydrogenase [NAD(+)] (Homo sapiens), P15428; purified HPGD, NADH fluorescence kinetic, PGE2 substrate; Potency, µM, for the others: top-dose activity change, negative = inhibition, usual class: inhibitors; 150,000 compounds, 4.3% hits; active = well fitted inhibition curve with a large enough effect (not every such curve was filed as active); inconclusive = small, poorly fitted or top-dose-only effect, or another doubt; inactive = no such curve, though single readings can be large or run the other way;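 also: top concentration of the series not given in the record; plate controls included wells without enzyme; inactives centre near -10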
# Target sequence (P15428 whole entry, looked up): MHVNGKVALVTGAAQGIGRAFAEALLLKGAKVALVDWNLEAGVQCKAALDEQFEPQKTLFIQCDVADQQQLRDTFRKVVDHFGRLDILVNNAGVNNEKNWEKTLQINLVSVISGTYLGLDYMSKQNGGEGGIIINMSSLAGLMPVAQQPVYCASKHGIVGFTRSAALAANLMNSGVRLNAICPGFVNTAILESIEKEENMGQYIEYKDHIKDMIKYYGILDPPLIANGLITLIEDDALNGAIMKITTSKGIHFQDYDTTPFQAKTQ
#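 NADH formation kinetics: reaction with 30 uM PGE2 and 1 mM NAD+ (final), 20 nM enzyme, Tris-HCl pH 8 with Tween 20, after 15 min compound preincubation at room temperature. Fluorescence change, last versus first of five reads.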
# An asterisk follows results filed as active; i = inactive; ? = inconclusive. % is scaled to controls: 0 for no effect and ±100 for the full control effect; potency is read from the fitted curve at half-maximal effect.
structure | HPGD inh
COc1ccc(C(CC(=O)Nc2ccc(F)cc2)c2ccccc2)cc1 (configuration not stated) | -11%
Cc1cc(C)cc(NC(=O)C(=O)NCc2ccccn2)c1 | 2%
COc1cccc2cc(C(=O)NCc3ccccn3)c(=O)oc12 | ?
CCCn1c(CC)nc([N+](=O)[O-])c1Sc1ccc(F)cc1 | ?
Cc1ccc(NCc2nnc(SCC(=O)N(Cc3ccccc3)C(C)(C)C)o2)c(C)c1 | -11%
CCC(=O)c1ccc(OCC(O)CN2C(=O)NC(C)(C)C2=O)cc1 (configuration not stated) | -16%
Cc1cc(C)cc(NC(=O)C(OC(=O)c2cccs2)c2ccccc2)c1 (configuration not stated) | -16%
CCN(CC)c1ccc(C(=S)N2CCN(c3ccccc3)CC2)cc1 | ?
Cc1ccc(N2CC(C(=O)NCc3ccc4c(c3)OCO4)CC2=O)cc1C (configuration not stated) | -14%
CC(=O)c1ccc(OCCCC(=O)Nc2cc(S(=O)(=O)N(C)C)ccc2C)cc1 | -5%
Cc1c(Cl)c([N+](=O)[O-])nn1CC(=O)NCc1cccs1 | -15%
Cn1c2c(c(=O)n(C)c1=O)C(NS(=O)(=O)c1ccccc1)(C(F)(F)F)C(=O)N2 (configuration not stated) | -12%
Cc1ccc(NS(=O)(=O)c2ccc(NC(=O)C3CCCO3)cc2)cc1 (configuration not stated) | -29%
CCCCCC(=O)N1CC2(CC(c3cccc(NC(=O)c4ccccc4)c3)=NO2)C[C@@H]1C(N)=O (some centres not stated) | 0%
CCOC(=O)c1cnn(-c2ccccc2)c1N | ?
Cc1nc(SCC(=O)NC(C)c2ccccc2)c2oc3ccccc3c2n1 (configuration not stated) | -12%
COc1cc(Nc2nc(SCC#N)nc3ccccc23)cc(OC)c1OC | -6%
CCCCSC(=S)N(C)C1CCS(=O)(=O)C1 (configuration not stated) | -11%
CCCCOc1ncnc2c1[nH]c1ccc(OCC)cc12 | -20%
O=C(ON=C1CCN(S(=O)(=O)c2ccccc2)CC1)c1ccc(F)cc1 | -9%

# Of the compounds above, two contain a nitro group on carbon.
structure | HPGD inh
CCCn1c(CC)nc([N+](=O)[O-])c1Sc1ccc(F)cc1 | ?
Cc1c(Cl)c([N+](=O)[O-])nn1CC(=O)NCc1cccs1 | -15%

# Back to the main list; the 3 compounds before the break are reprinted first.
structure | HPGD inh
CCCCSC(=S)N(C)C1CCS(=O)(=O)C1 (configuration not stated) | -11%
CCCCOc1ncnc2c1[nH]c1ccc(OCC)cc12 | -20%
O=C(ON=C1CCN(S(=O)(=O)c2ccccc2)CC1)c1ccc(F)cc1 | -9%
CCOC(=O)/C(=N\Nc1cc(Cl)ccc1Cl)N1CCN(C)CC1 | -8%
CCCN1C(=O)C2(C(C(=O)c3ccc(C)o3)=C(O)C(=O)N2CCCN2CCOCC2)c2ccccc21 (configuration not stated) | -4%
C=CCn1c(SCC(=O)c2cc(C)n(Cc3cccs3)c2C)nnc1-c1ccncc1 | ?
CC(c1ccccc1)N(CCC(c1ccccc1)C1CCOC(C)(C)C1)C(=O)c1ccco1 (configuration not stated) | -18%
CCOC(=O)/C=C1\SCC(=O)N1CC(=O)NC1CCCCC1 | -3%
CCc1ccccc1NC(=O)C(Cc1cccc(OC)c1OC)c1nn[nH]n1 (configuration not stated) | -6%
Cc1cc(C)nc(NS(=O)(=O)c2ccc(NC(=O)COc3ccccc3)cc2)n1 | 0%
CC(=O)Nc1ccc(S(=O)(=O)N(CCO)Cc2ccccc2)cc1 | -8%
CC(=O)Nc1ccc(NC(=O)CSc2ccc(-c3ccc4c(c3)OCO4)nn2)cc1 | -30%
CCc1c(C(=O)NNC(=S)NCC(C)C)csc1C | -11%
CCOC(=O)Cc1csc(NC(=O)CSc2nnc(C(C)C)n2C)n1 | -7%
CC(C)(C)NS(=O)(=O)c1ccc(NS(C)(=O)=O)cc1 | -8%
O=C(COc1nc2ccccc2nc1N1CCOCC1)Nc1ccc(S(=O)(=O)N2CCCC2)cc1 | -18%
O=C(NNc1ccc([N+](=O)[O-])cc1)C1C2CCCCC21 (configuration not stated) | -8%
CC(=O)Nc1cc2c(cc1C(C)=O)OCCO2 | -22%
COc1cc(NC(=O)c2cc(C(C)C)on2)c(OC)cc1Cl | ?
CCC1=[N+](C)CCn2c(C)ccc21 | -13%
COCCCNC(=O)C1CCN(S(=O)(=O)c2c(C)noc2/C=C\c2ccc(OC)cc2)CC1 | i
O=C(Nc1cccc(-c2nnc(-c3ccccc3)o2)c1)c1ccco1 | -14%
COc1ccc(OCCC(=O)OCC(=O)Nc2ccc(Br)cc2)cc1 | -14%

# Quoted from above (three entries):
structure | HPGD inh
COCCCNC(=O)C1CCN(S(=O)(=O)c2c(C)noc2/C=C\c2ccc(OC)cc2)CC1 | i
O=C(Nc1cccc(-c2nnc(-c3ccccc3)o2)c1)c1ccco1 | -14%
COc1ccc(OCCC(=O)OCC(=O)Nc2ccc(Br)cc2)cc1 | -14%

# Later entries.
structure | HPGD inh
CC1(C)Cc2ccccc2-c2nnc(-c3ccc4ccccc4n3)n21 | -18%
COCc1cc(C)nc(N2CCc3ccccc32)c1C#N | ?
Cc1ccc(NC(=O)COC(=O)C(NS(=O)(=O)c2ccc(Cl)cc2)C(C)O)cc1 (configuration not stated) | -3%
COc1ccc(C(=O)Nc2ccc(Oc3nc(C)nc4sc(-c5ccccc5)cc34)cc2)cc1OC | ?
COc1ccc(OC)c(/C=N/NC(=O)CSc2nnc(C)n2-c2ccccc2)c1 | -22%
COc1cc2[nH]c(=O)n(CCC(=O)N3CCc4ccccc4C3)c(=O)c2cc1OC | -23%
N#Cc1ccc(-c2ccc(F)cc2)nc1SCC(=O)Nc1sc2c(c1C#N)CCC2 | ?
CS(=O)(=O)c1ccc([C@H](O)[C@H](CF)NC(=O)C(Cl)Cl)cc1 | -10%
CCCn1c(=O)c2ccccc2n2c(Sc3nnnn3-c3ccccc3)nnc12 | -22%
O=C1c2oc3ccccc3c(=O)c2C(c2cccnc2)N1CCCN1CCOCC1 (configuration not stated) | -3%
Cc1c(/C=C(\C#N)c2nn(-c3ccccc3)c(N)c2C#N)c2ccccc2n1Cc1ccc(F)cc1 | -8%
CC(=O)NC1=NC(=O)CS1 | -8%
c1ccc(-n2ncc3c(NCCN4CCCCC4)ncnc32)cc1 | -19%
Cc1cc2ccccn2c1C(=O)c1nc(N2CCOCC2)ncc1Cl | -7%
COc1ccc(-c2[nH]c(-c3cc(OC)c4c(c3)OCO4)nc2-c2ccccc2)cc1 | ?
COCCNc1nc(C)nc2c1nc(-c1ccccc1)n2CCCN1CCCCC1C (configuration not stated) | ?
O=c1cc(C23CC4CC(CC(C4)C2)C3)[nH][nH]1 | -7%
CCC(C)Nc1ncnc2c1cnn2Cc1ccc(Cl)cc1 (configuration not stated) | -24%
Cc1ccc(C)c(CN2CCCN(C(=O)Cn3ncc4c3-c3ccccc3OC4)C2)c1 | -6%
Cc1nc2ccc(NC(=O)c3ccc(Cl)c(NC(=O)c4cccs4)c3)cc2s1 | -8%

# Remaining list, next part.
structure | HPGD inh
Cn1nnnc1SCC(=O)Nc1ccccc1N1CCOCC1 | -8%
COCCNc1oc(-c2ccccc2Cl)nc1C#N | -22%
COc1ccccc1C1/C(=C(/O)c2ccc(C)cc2)C(=O)C(=O)N1Cc1ccco1 (configuration not stated) | -14%
Cc1cccc(NS(=O)(=O)c2cc(C(=O)N3CCc4ccccc4C3)ccc2Cl)c1C | -6%
CN1CCN(C(=O)CN(Cc2ccccc2)S(C)(=O)=O)CC1 | 3%
CN1C(=O)c2cccc(NC(=O)C3CCCCC3)c2C1=O | -23%
COc1ccccc1NC(=O)C(C/C=C(\C)Cl)C(C)=O (configuration not stated) | -6%
O=C(CN(Cc1cccs1)C(=O)CSc1nnc(COc2ccccc2)o1)NC1CCCC1 | -5%
CC(CN(C)C)C(C)(O)Cc1ccc(Cl)cc1 (configuration not stated) | -8%
CCOC(=O)C1CCN(C(=S)Nc2cccc(C)c2)CC1 | -3%
COc1ccc(/C=N/NC(=O)C2C(=O)NCC2c2ccccc2)c(OC)c1 (configuration not stated) | -6%
Cc1onc(-c2ccccc2Cl)c1C(=O)N1CCN(C/C=C/c2ccccc2)CC1 | -6%
O=S(=O)(c1cccc(C(F)(F)F)c1)N1c2ccccc2-n2cccc2[C@H]1c1cccnc1 | -24%
CCN(CC)CCCN1CC(O)=C(c2nc3ccccc3s2)C1=N | -9%
CCc1nc2c(sc3nc4c(cc32)COC(C)(C)C4)c(=O)n1Cc1ccco1 | -27%
N#C/C(=C\C=C\c1ccccc1)c1nc(-c2ccc3c(c2)OCO3)cs1 | -8%
COc1ccc(CNc2ccc3c(c2)nc(C)n3C)cc1 | -12%
Clc1ccc(C2[C@H]3CN(Cc4cccnc4)[C@H](c4ccccc4)C34CC2(c2cccnc2)C4)cn1 (some centres not stated) | -7%
Clc1ccc(-c2nnc3sc(-c4ccc(Br)o4)nn23)c(Cl)c1 | -7%
CCOC(=O)N1CCN(c2c(NCCN3CCN(Cc4ccccc4)CC3)c(=O)c2=O)CC1 | -29%

# Next part.
structure | HPGD inh
Cn1ncc2cc(NC(=S)NC(=O)c3ccccc3)ccc21 | ?
O=c1oc(-c2ccccc2Cl)nc2ccsc12 | -18%
CCOC(=O)CN1C(=O)C2Cc3ccccc3CN2C1=S (configuration not stated) | -10%
CCOC(=O)CC(C#N)c1cn(C)c2ccccc12 (configuration not stated) | -10%
CC(=O)N1CCN(S(=O)(=O)c2cccc(C(=O)Nc3nc4ccccc4[nH]3)c2)CC1 | ?
Cn1c2c(c(=O)n(C)c1=O)C(NS(=O)(=O)c1ccc(Cl)cc1)(C(F)(F)F)C(=O)N2 (configuration not stated) | -18%
CCOC(=O)c1c(NC(=O)CSc2nnc(CNc3ccc(F)cc3)o2)sc(C(C)=O)c1C | -21%
O=C(N/N=C\c1ccc(Cl)s1)c1cccs1 | ?
CCc1ccc(CN2C(=O)CCC2(C)C(=O)NC2CCCC2)cc1 (configuration not stated) | -7%
CCCCOC(=O)c1ccc(Nc2ncnc3nc[nH]c23)cc1 | ?
N#CC1(Cc2ccccc2Cl)c2ccccc2C=CN1C(=O)c1ccccc1 (configuration not stated) | -8%
Cc1c(Cl)c([N+](=O)[O-])nn1CCCC(=O)N1CCN(c2ccccc2)CC1 | -16%
Cc1ccc(CCNC(=O)NC(C)(C)C)cc1 | -6%
CCOc1ccc2[nH]c(=O)c(CN(Cc3ccccc3OC)C(=O)c3ccccc3)cc2c1 | -17%
CN1C(=O)C2(c3ccccc31)N(C)CC(c1ccccn1)C21SC(=S)N(Cc2ccco2)C1=O (configuration not stated) | -3%
CCC(C)(C)n1nnnc1CN(Cc1cc2cc(OC)c(OC)cc2[nH]c1=O)C1CCCC1 | ?
NC(=O)C1(N2CCCCC2)CCN(c2ccc3nnc(-c4ccccc4)n3n2)CC1 | -15%
O=C(CSc1nnc(-c2ccncc2)n1Cc1ccco1)OC1CCCCC1 | -24%
O=C(Nc1nnc(SCc2ccc(Cl)cc2)s1)C1CCCO1 (configuration not stated) | -11%
Cc1cc(C)nc(N2CCC(C(=O)NCc3ccccc3)CC2)n1 | -14%

# (continued)
structure | HPGD inh
Cc1cccc(N2CCN(C(=O)CC(NC(=O)c3ccccc3Cl)c3ccccc3)CC2)c1C (configuration not stated) | -11%
Cc1oc(C(C)(C)C)cc1C(=O)Nc1ccc(C(=O)O)cc1 | -4%
CCOC(=O)c1sc(=S)n(Cc2ccccc2)c1N | -13%
Nc1nc(/C(=C/CC(=O)O)C(=O)NC2C(=O)N3C(C(=O)O)=CCSC23)cs1 (configuration not stated) | -21%
Clc1ccc(-c2noc(CCCc3ccccc3)n2)cc1 | 1%
COc1ccc(N(CC(=O)N/N=C/c2ccc(-c3ccc([N+](=O)[O-])cc3)o2)S(=O)(=O)c2ccc(C)cc2)cc1 | -7%
COC(=O)c1ccc(C2C(C(=O)OCC(C)C)=C(C)N=C3SCCC(=O)N32)cc1 (configuration not stated) | -22%
Oc1ccc2ccccc2c1/C=N/c1nc2c(s1)CCCC2 | -25%
CCN(c1ccccc1)S(=O)(=O)c1ccc(C(=O)OC(C)C(=O)NCCC2=CCCCC2)cc1 (configuration not stated) | -24%
CCOC(=O)c1[nH]c(CSc2nnnn2-c2ccccc2C)c(C(=O)OCC)c1C | 3%
O=C(c1ccco1)N1CCN(C2CC(=O)N(c3ccccc3)C2=O)CC1 (configuration not stated) | -12%
O=C(Nc1cc([N+](=O)[O-])ccc1Cl)C1CC1 | -12%
COc1ccc(OC(=O)c2ccncc2)cc1 | -4%
N#Cc1c(NCCN)nc(-c2ccccc2)c2c1CCCC2 | -17%
CCc1ccc2oc(=O)cc(CN3CCN(c4ccc(F)cc4)CC3)c2c1 | -6%
Cc1c(C(=O)Oc2cccc3ccccc23)cnn1-c1ccccc1 | -29%
CC(C)(C)OC(=O)N/N=C\C=C\c1ccc2c(c1)OCO2 | 16µM*
Cn1c(=O)[nH]c(=O)c2c1nc(N1CCCCCC1)n2CCN1CCCCCC1 | -11%
C=CCn1c(C(C)NC(=O)C(C)(C)C)nc2ccccc21 (configuration not stated) | -9%
CCOc1ccc(-n2c(Cc3ccccc3)nnc2SCc2c(C)noc2C)cc1 | -3%
CCC(C)NC(=O)CC1Oc2ccc(C)cc2NC1=O (configuration not stated) | -1%

# As entered above.
# HPGD inh, CCOC(=O)/C(=N\Nc1cc(Cl)ccc1Cl)N1CCN(C)CC1 is entered as -8%
# HPGD inh, NC(=O)C1(N2CCCCC2)CCN(c2ccc3nnc(-c4ccccc4)n3n2)CC1 is entered as -15%

# This is a subset; the hit share may differ from the screen's.
